HPGD inh – qHTS Assay for Inhibitors of HPGD (15-Hydroxyprostaglandin Dehydrogenase). purified HPGD, NADH fluorescence kinetic, PGE2 substrate. actives 4.3% (n = 150,000). AID 894, 2007. Potency, µM, for inactives: at the highest dose activity change, negative = inhibition, actives largely listed as inhibitors; active = well fitted inhibition curve with a large enough effect (not every such curve was filed as active); inconclusive = small, poorly fitted or top-dose-only effect, or another doubt; inactive = no such curve, though single readings can be large or run the other way;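 further: top concentration of the series not given in the record; plate controls included wells without enzyme; inactives centre near -10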
Target sequence (P15428 whole entry, looked up): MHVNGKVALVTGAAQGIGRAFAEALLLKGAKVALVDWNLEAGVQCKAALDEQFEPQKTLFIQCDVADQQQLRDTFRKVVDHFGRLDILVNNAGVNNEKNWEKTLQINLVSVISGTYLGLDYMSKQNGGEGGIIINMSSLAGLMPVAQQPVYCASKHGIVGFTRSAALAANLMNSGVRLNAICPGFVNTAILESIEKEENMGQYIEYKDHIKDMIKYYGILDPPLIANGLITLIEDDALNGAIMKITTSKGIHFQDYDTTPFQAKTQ
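NADH formation kinetics: reaction with 30 uM PGE2 and 1 mM NAD+ (final), 20 nM enzyme, Tris-HCl pH 8 with Tween 20, after 15 min compound preincubation at room temperature. Fluorescence change, last versus first of five reads.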
* marks the source's active call; other numbers are inactive results; ? = inconclusive; & = joins results of further samples. On the % scale 0 is the no-effect control and ±100 the full control effect; potency means the concentration at half of the fitted maximal effect. Not all compounds are listed; count on the stated rates, not on these rows.

| smiles | HPGD inh |
| --- | --- |
| CC(NCc1ccc2c(c1)OCO2)C(=O)N1CCc2ccccc21 (stereo not given) | -10% |
| O=C(Nc1ccc(N2CCCC2)c(S(=O)(=O)Nc2cccc(C(F)(F)F)c2)c1)c1cccs1 | -20% |
| O=C(CSCc1ccccc1Br)NC1CC1 | -28% |
| CCc1nc2oc3ccccc3c(=O)c2c(=O)n1Cc1ccccc1 | -22% |
| CC(C)(C)NC(=O)CN(C(=O)CCN1CCCc2ccccc21)C(C)(C)C | -1% |
| COC(=O)NNC(=S)NCc1ccc(C)cc1 | -6% |
| CCOCC(=O)Nc1nnc(SCCOC)s1 | 3% |
| CC1CCCCC1NC(=O)CC1Oc2ccccc2NC1=O (stereo not given) | -7% |
| CCc1ccc2oc(-c3cc(N)ccc3Cl)nc2c1 | ? |
| CCOc1ccc(NC2=NCC(=O)N2Cc2cccs2)cc1 | -16% |
| CCC(C)[C@H](NC(=O)OC(C)(C)C)c1nnc(SCc2c(C)[nH]c(=O)[nH]c2=O)o1 (stereo not given in full) | 4% |
| Clc1ccc(SCc2cc(-c3ccccc3)on2)cc1 | -8% |
| Cc1ccccc1NC(=O)OCc1cccnc1Sc1ccc(Cl)cc1 | -19% |
| Cc1cccc(C(=O)NCCCN2CCCC2=O)c1 | -5% |
| CSc1nnc(-c2cc[n+](C)cc2)n1CCO | -5% |
| CC(C)n1c(C(O)c2ccc3c(c2)OCO3)nc2ccccc21 (stereo not given) | -2% |
| COc1c2c(nc3occc13)C(CC=C(C)C)(OC)C(=O)C=C2 (stereo not given) | -5% |
| COC(=O)C(C)Sc1nc2c(c(=O)[nH]c(=O)n2C)n1CCC(C)C (stereo not given) | -15% |
| Cc1noc(C)c1CSCC(=O)OCc1nc2ccccc2c(=O)n1CC#N | -12% |
| CC(c1ccccc1)C1NC(C(=O)O)CS1 (stereo not given) | -10% |
| COC(=O)N1CCC[C@@]2(CCN(Cc3cc(C(F)(F)F)cc(C(F)(F)F)c3)C2)C1 | -6% |
| CCCCCC(=O)O[C@H](CC(=O)O)C[N+](C)(C)C | -8% |
| CCN(CC)S(=O)(=O)c1cc(NC(=O)CCNC(=O)c2ccccc2Cl)ccc1C | -4% |
| O=C(Cn1c(C(F)(F)F)nc2ccccc21)NCCCN1CCOCC1 | 1% |
| COc1cccc2c(=O)c3cccc(N)c3[nH]c12 | -12% |

New compounds follow
| smiles | HPGD inh |
| --- | --- |
| O=C(Nc1ccccc1N1CCOCC1)C1CCN(S(=O)(=O)c2ccccc2F)CC1 | -7% |
| CCOC(=O)C(C)Oc1cccc2c(=O)n(CC(=O)NCCc3ccc(OC)c(OC)c3)ccc12 (stereo not given) | -11% |
| CCN=c1scc(-c2ccccc2)n1/N=C/c1ccccn1 | -12% |
| Cc1cc(C(=O)COC(=O)CCc2nc3ccccc3s2)c(C)n1C | -12% |
| Fc1ccc(CSc2ccc(-c3cccs3)nn2)cc1 | -11% |
| COC(=O)Cc1c(C)c2ccc(OCC(=O)N(C)C)cc2oc1=O | ? |
| CC(NC(=O)CCc1ccc(S(=O)(=O)NC2CCCCC2)cc1)c1ccccc1 (stereo not given) | -7% |
| Cc1ccc2ncccc2c1 | -7% |
| COc1cc2c(cc1OC)C(C1C(=O)CCCC1=O)N(C(=O)CCl)CC2 (stereo not given) | -8% |
| O=C(O)c1ccccc1-c1ccccc1C(=O)Nc1ccccc1 | -1% |
| Cn1c(SCc2ccccc2Cl)nc2ccccc21 | -17% |
| CCCc1cc(=O)[nH]c(SC(CC)C(=O)Nc2ccccc2C#N)n1 (stereo not given) | -5% |
| Cc1nn(-c2ccccc2)nc1CNC(=O)C(C)Cc1ccccc1 (stereo not given) | -12%&-12% |
| O=C(CSc1ncccc1C(=O)O)NCCC1=CCCCC1 | -8% |
| O=C(COC(=O)[C@H](Cc1ccccc1)NC(=O)c1cccs1)Nc1cc(F)ccc1F | 3% |
| C=C(C)CSc1nc2c(c(=O)[nH]c(=O)n2C)n1CCC(C)C | -9% |
| CCCN1CCC2(CC1)C(C#N)=C(N)Oc1c2sc2nc(C)cc(C)c12 | -18% |
| COc1ccc(C2C3=C(CC(c4ccco4)CC3=O)Nc3ccccc3N2C(C)=O)cc1 (stereo not given) | -14% |
| Cc1cc2cc(CCNC(=O)c3ccc(S(=O)(=O)N4CCOCC4)cc3)c(=O)[nH]c2cc1C | -27% |
| O=C(Nc1ccccc1Br)C1CC(=O)N(c2ccc3c4c(cccc24)CC3)C1 (stereo not given) | -15% |
| O=C(COC(=O)c1ccccc1)Nc1ccccc1N1CCOCC1 | -10% |
| Clc1ccccc1-c1nc(-c2ccncc2)no1 | -10% |
| CCCS(=O)(=O)N1CCCC(C(=O)N2CCN(C(=O)OCC)CC2)C1 (stereo not given) | -5% |
| CC(=O)Cc1nsc(NC(=O)c2ccc(-c3ccc(Cl)c(C(F)(F)F)c3)o2)n1 | -7% |
| CC1=CC(C)(C)n2c(O)c(N=NC(N)=S)c3cc(C)cc1c32 | 2% |

Among those listed so far, 3 have two or more sulfur atoms:
| smiles | HPGD inh |
| --- | --- |
| O=C(Nc1ccc(N2CCCC2)c(S(=O)(=O)Nc2cccc(C(F)(F)F)c2)c1)c1cccs1 | -20% |
| CCOCC(=O)Nc1nnc(SCCOC)s1 | 3% |
| Fc1ccc(CSc2ccc(-c3cccs3)nn2)cc1 | -11% |

Next entries follow:
| smiles | HPGD inh |
| --- | --- |
| COc1ccc(C(=O)CC(c2ccccc2)C2C(=O)CCCC2=O)cc1 (stereo not given) | -10% |
| CCN(CC)c1ccc(NC(=O)c2nc3nc(C)cc(C(F)F)n3n2)cc1 | 22µM* |
| O=C1NC(=O)c2cc(NC(=O)C3CCCO3)ccc21 (stereo not given) | ? |
| CCCCOc1ccc(C2(C)CC(=O)NC2=O)cc1 (stereo not given) | 3% |
| Fc1ccc(-c2nnc(CSc3nnc(-c4cccs4)o3)o2)cc1 | ? |
| CCCCOc1ccc(C(=O)Nn2cnnc2)cc1 | -8% |
| CCN(CC)C(=O)C1CCCN(c2ccc([N+](=O)[O-])cc2/C=N/NC(=O)c2ccc([N+](=O)[O-])cc2)C1 (stereo not given) | -7% |
| O=C(NN=C1CCCCC1)c1ccccc1OCc1ccc(F)cc1 | -5% |
| Cc1ccc2nc(-c3ccc(SCC(=O)Nc4cc(C)on4)nc3)[nH]c2c1 | ? |
| CCOc1ccc2[nH]c(=O)c(CN(Cc3ccco3)C(=O)c3ccc(Br)cc3)cc2c1 | -20% |
| COC(=O)c1ccc(C(=O)OC)c(NC(=O)CSc2cccc[n+]2[O-])c1 | ? |
| CSc1nc(N(C)CCO)c2sc3nc(-c4ccco4)c4c(c3c2n1)CCC4 | ? |
| CC(C)C[C@H](N)c1nnc(S(=O)(=O)Cc2cccc(F)c2)o1 | -27% |
| COc1cc(OC)c(C(=O)CCC(=O)O)cc1OC | -14% |
| COc1ccc(-c2nnc3ccc(SCC(=O)Nc4nc5ccc(C)cc5s4)nn23)cc1OC | -15% |
| CCCC(=O)N=c1sc2cccc(F)c2n1C | -18% |
| COc1cc(-c2cc(C(F)(F)F)n3ncc(C(=O)O)c3n2)cc(OC)c1OC | -14% |
| O=C1CN(C(=O)CSc2nnc3ccccn23)c2ccccc2N1 | -10% |
| O=C(O)c1ccccc1C(=O)c1cccs1 | -10% |
| O=C(Cc1ccccc1)Nc1cc(Cl)ccc1Sc1ccccc1 | -13% |
| CCCCS/C(N)=N/N=C/c1cc(C)ccc1O | -13% |
| Cc1c(NS(=O)(=O)CC23CCC(CC2=O)C3(C)C)c(=O)n(-c2ccccc2)n1C (stereo not given) | -3% |
| Cc1[nH]c(=S)sc1Cc1ccc(F)cc1 | 16µM* |
| C(=C\c1ccccc1)/CNn1cnnc1 | -6% |
| Nc1nonc1-c1noc(COc2ccccc2Cl)n1 | -19% |

Entries from the list above that have a Cl atom (ten):
| smiles | HPGD inh |
| --- | --- |
| CCc1ccc2oc(-c3cc(N)ccc3Cl)nc2c1 | ? |
| Clc1ccc(SCc2cc(-c3ccccc3)on2)cc1 | -8% |
| Cc1ccccc1NC(=O)OCc1cccnc1Sc1ccc(Cl)cc1 | -19% |
| CCN(CC)S(=O)(=O)c1cc(NC(=O)CCNC(=O)c2ccccc2Cl)ccc1C | -4% |
| COc1cc2c(cc1OC)C(C1C(=O)CCCC1=O)N(C(=O)CCl)CC2 (stereo not given) | -8% |
| Cn1c(SCc2ccccc2Cl)nc2ccccc21 | -17% |
| Clc1ccccc1-c1nc(-c2ccncc2)no1 | -10% |
| CC(=O)Cc1nsc(NC(=O)c2ccc(-c3ccc(Cl)c(C(F)(F)F)c3)o2)n1 | -7% |
| O=C(Cc1ccccc1)Nc1cc(Cl)ccc1Sc1ccccc1 | -13% |
| Nc1nonc1-c1noc(COc2ccccc2Cl)n1 | -19% |

Remaining list, next part:
| smiles | HPGD inh |
| --- | --- |
| COc1ccc(C(=O)CSc2nnc(Cc3ccccc3)o2)cc1 | -17% |
| Cc1nccn1CC(=O)O | -9% |
| CCC(C)NC(=O)C1CCN(C(=O)N(C)C)CC1 (stereo not given) | -8% |
| CC(C)=C1C(=O)NN(c2cccc(Cl)c2)C1=O | 7.9µM* |
| O=C(NC1CCCCC1)C1CC(=O)N(CCc2ccccc2)C1 (stereo not given) | -12% |
| COc1ccc(OC)c2[nH]c(C(=O)O)cc12 | ? |
| CCOc1ccc(-c2nc(N)nc(C)c2-c2ccc(OC)c(OC)c2)c(O)c1 | -7% |
| COc1ccc(C(=O)N/N=C(\C)CC(=O)N2CCN(C=O)CC2)cc1 | -5% |
| CCc1nc2ccccc2c(C(=O)OCc2nnc(-c3ccccc3)o2)c1C | 20µM* |
| COC(=O)c1cc(C(=O)NCCN2C(=O)S/C(=C\c3cccs3)C2=O)cc([N+](=O)[O-])c1 | -16% |
| CCOc1ccc(-c2nc(C)sc2CC(=O)O)cc1 | -13% |
| CC(C)OC(=O)c1ccc(S(N)(=O)=O)o1 | -1% |
| CCC(=O)Nc1ccc(Cl)c(NC(=O)C(C)C)c1 | -5% |
| O=c1c2c(ncn1Cc1ccccc1)nc1n2CCC1 | -18% |
| C(=N\n1cnnc1)/c1nc2ccccc2[nH]1 | ? |
| CCN(Cc1ccccc1)C(=O)C1CCN(CC2CC=CCC2)CC1 (stereo not given) | -10% |
| CCOc1ccc(OCC)c(NC(=O)C2CCCN(S(=O)(=O)c3c(C)n[nH]c3C)C2)c1 (stereo not given) | 2% |
| O=C1CC(C(=O)Nc2ccc(F)c(Cl)c2)N=C(N2CCCCC2)N1 (stereo not given) | -3% |
| COc1ccc(OC)c(C2C3=C(CCCC3=O)Nc3c2c(=O)n(C)c(=O)n3C)c1 (stereo not given) | -2% |
| Cc1cc(C)nc(N2CCC(C(=O)NCc3cccc(C(F)(F)F)c3)CC2)n1 | -2% |
| COC(=O)[C@H](CCSC)NC(=O)NCCc1ccccc1F | 2% |
| CCNC(=O)n1nccc1C(C)Oc1ccccc1 (stereo not given) | -8% |
| COc1ccc(C2CC(=O)c3cnc(NC(=O)c4ccccc4)nc3C2)cc1OC (stereo not given) | -18% |
| COC(=O)C1=C(NC(=O)c2cccs2)CCS1 | -6% |
| OC1CC2CC[C@H](C1)N2CCCN1c2ccccc2Sc2ccc(Cl)cc21 (stereo not given in full) | -7% |

2 compounds picked at random from the list so far, as already listed:
| smiles | HPGD inh |
| --- | --- |
| COc1ccc(OC)c(C2C3=C(CCCC3=O)Nc3c2c(=O)n(C)c(=O)n3C)c1 (stereo not given) | -2% |
| CCCN1CCC2(CC1)C(C#N)=C(N)Oc1c2sc2nc(C)cc(C)c12 | -18% |

Other compounds
| smiles | HPGD inh |
| --- | --- |
| Cc1ccc(-c2csc(N(CC3CCCO3)C(=O)c3ccco3)n2)cc1 (stereo not given) | ? |
| COc1cc(OC)c2c(=O)c(OC)c(-c3ccc(OC)c(OC)c3)oc2c1 | -29% |
| O=C(NC1CCCC1)C(c1cccs1)N(C(=O)c1ccco1)c1ccc2c(c1)OCCO2 (stereo not given) | 1% |
| Cc1cc(-c2cc(C)c(O)c(C(C)(C)C)c2)cc(C(C)(C)C)c1O | -6% |
| COc1cccc(N2CC(C(=O)Nc3nnc(SCc4ccccn4)s3)CC2=O)c1 (stereo not given) | ? |
| CC1CN(Cc2nc3c(c(=O)[nH]c(=O)n3C)n2CCN2CCOCC2)CC(C)O1 (stereo not given) | -4% |
| CN(C)c1ccc(CNC(=O)CN(C)S(=O)(=O)c2cccc3cccnc23)cc1 | 0% |
| Cc1c(NC(=O)C2CCN(S(=O)(=O)c3ccccc3)CC2)c(=O)n(-c2ccccc2)n1C | -2% |
| O=C(NCC(c1cccnc1)N1CCOCC1)Nc1ccccc1 (stereo not given) | -13% |
| Cc1ccc(-n2ncc(C#N)c2/N=C/N(C)C)cc1 | -3% |
| CCOC(=O)C1C(C)N=C2SCC(=O)N2C1c1cccc(Br)c1 (stereo not given) | -4% |
| Cc1cc2cc(C(c3nnnn3Cc3ccco3)N3CCCCC3)c(=O)[nH]c2cc1C (stereo not given) | -20% |
| Cc1nnc(SCc2ccc(C(=O)c3ccc(Cl)cc3)o2)n1-c1ccccc1 | -24% |
| CCOC(=O)Nc1c(C)n(C)n(-c2ccccc2)c1=O | -7% |
| CCOC(=O)N1CCN(C(=O)C2CCN(S(=O)(=O)c3c(C)cc(C)cc3C)CC2)CC1 | -5% |
| COCCCNC(=O)C(=O)NCCCOC(C)C | 7% |
| COc1ccc(C(CNC(=O)Cc2cc(OC)c(OC)c(OC)c2)N2CCCC2)cc1 (stereo not given) | -12% |
| COc1ccccc1C(=O)NCc1ccncc1 | -4% |
| CC(=O)COc1ccccc1OC(=O)c1ccco1 | -7% |
| COc1cc(C2C(C(C)=O)=C(O)C(=O)N2CCN2CCOCC2)ccc1O (stereo not given) | -5% |
| O=C1C(Cl)=C(Nc2ccc(S(=O)(=O)Nc3ccccn3)cc2)C(=O)c2ccccc21 | 2.8µM* |
| CCCCCCc1nc2ccccc2c(=O)n1NC(=O)c1c(O)c2cccc3c2n(c1=O)CCC3 | -19% |

Bioassay records from PubChem.
